Env fusion inh = inhibitors of HIV-1 Env-driven cell-cell fusion, primary screen, HeLa-JRFL effector, CEM21 target cells, luciferase; AID 651610, 2012; 360,000 tested, 1.1% active; inhibition, % at 12.3 µM;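 active means mean replicate inhibition score of at least 50 and every replicate individually at or above 50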;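 further: 0% = plate neutral controls and 100% = maraviroc near 300 nM; one replicate is shown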
Yeast UUG start = modulators of yeast start codon fidelity, primary screen, whole organism, S. cerevisiae, single point, plate reader | S. cerevisiae UUG-firefly luciferase reporter, luminescence/redox ratio | activity score, % at 18.7 µM | 350,000 tested, 0.13% active;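 active means replicate mean at a twofold rise or more, about +100% in these data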;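 further: firefly luciferase made from a UUG start codon reports start codon fidelity; reporter light over untreated wells divided by growth signal over untreated wells; some hits fall short of that in this replicate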
Starred values were filed as active, the others as inactive; [ ] = dose if it differs, or a comment.

SMILES	Env fusion inh	Yeast UUG start
C[C@H](CO)N1C[C@H](C)[C@H](CN(C)S(C)(=O)=O)Oc2c(NC(=O)Nc3ccc4c(c3)OCO4)cccc2C1=O	-33.3[16.7 µM]	3.8
C[C@H](CO)N1C[C@H](C)[C@H](CN(C)Cc2ccc(C(=O)O)cc2)OCCCC[C@H](C)Oc2ccc(NC(=O)CCCN(C)C)cc2C1=O	-12.4[16.7 µM]	27.5
C[C@@H]1CCCCO[C@@H](CN(C)S(=O)(=O)c2ccccc2)[C@H](C)CN([C@H](C)CO)C(=O)c2cc(NC(=O)Cc3ccccc3)ccc2O1	-73.2[16.7 µM]	2.2
CC(C)CC#Cc1ccc2c(c1)O[C@@H](CN(C)C(=O)Cc1ccccn1)[C@H](C)CN([C@@H](C)CO)S2(=O)=O	8.3[16.7 µM]	2.5
N#C[C@@H]1[C@@H](c2ccc(C#CC3CCCC3)cc2)[C@@H](CO)N1S(=O)(=O)c1ccccc1	1.4[16.7 µM]	-6.5
COc1ccc(-c2cnc3c(c2)C(=O)N([C@H](C)CO)C[C@H](C)[C@H](CN(C)Cc2ccncc2)O3)cc1	2.8[16.7 µM]	-2.2
COc1ccccc1S(=O)(=O)N[C@H]1CC[C@H](CCNC(=O)C2CC2)O[C@H]1CO	0.5[16.7 µM]	-4.1
C[C@@H]1CN([C@H](C)CO)C(=O)c2cc(NC(=O)c3ccccc3)ccc2O[C@@H](C)CCCCO[C@H]1CN(C)C(=O)NC1CCCCC1	23.4[16.7 µM]	5.6
CC(C)NC(=O)N(C)C[C@@H]1Oc2cc(C3=CCCC3)ccc2S(=O)(=O)N([C@@H](C)CO)C[C@H]1C	0.8[16.7 µM]	-8.7
C[C@H](CO)N1C[C@H](C)[C@@H](CN(C)C(=O)C2CCCCC2)Oc2ncc(-c3cccc(C#N)c3)cc2C1=O	-17.2[16.7 µM]	-1.5

Next part, overlapping the part above by four compounds.
SMILES	Env fusion inh	Yeast UUG start
COc1ccccc1S(=O)(=O)N[C@H]1CC[C@H](CCNC(=O)C2CC2)O[C@H]1CO	0.5[16.7 µM]	-4.1
C[C@@H]1CN([C@H](C)CO)C(=O)c2cc(NC(=O)c3ccccc3)ccc2O[C@@H](C)CCCCO[C@H]1CN(C)C(=O)NC1CCCCC1	23.4[16.7 µM]	5.6
CC(C)NC(=O)N(C)C[C@@H]1Oc2cc(C3=CCCC3)ccc2S(=O)(=O)N([C@@H](C)CO)C[C@H]1C	0.8[16.7 µM]	-8.7
C[C@H](CO)N1C[C@H](C)[C@@H](CN(C)C(=O)C2CCCCC2)Oc2ncc(-c3cccc(C#N)c3)cc2C1=O	-17.2[16.7 µM]	-1.5
CCCNC(=O)N(C)C[C@H]1Oc2cc(C#Cc3cccc(F)c3)ccc2S(=O)(=O)N([C@@H](C)CO)C[C@@H]1C	-35.7[16.7 µM]	5.7
C[C@H](CO)N1C[C@H](C)[C@@H](CN(C)C(=O)c2ccc(F)cc2)Oc2ncc(/C=C/c3ccccc3)cc2C1=O	3.6[16.7 µM]	14.6
C[C@@H]1CN([C@@H](C)CO)C(=O)c2cc(NC(=O)Nc3ccc(F)cc3)ccc2O[C@@H]1CN(C)S(=O)(=O)c1ccc(F)cc1	22.7[16.7 µM]	-6.7
CCCNC(=O)N(C)C[C@H]1Oc2cc(-c3ccccc3)ccc2S(=O)(=O)N([C@H](C)CO)C[C@H]1C	-7.9[16.7 µM]	-0.5
Cc1noc(C)c1S(=O)(=O)Nc1ccc2c(c1)C(=O)N([C@@H](C)CO)C[C@@H](C)[C@H](CN(C)C(=O)Nc1ccc(C(F)(F)F)cc1)OCCCC[C@@H](C)O2	14.6[16.7 µM]	-12.8
C[C@@H]1CN([C@H](C)CO)C(=O)c2cc(NS(=O)(=O)c3ccc(F)cc3)ccc2O[C@H]1CN(C)Cc1ccc(Oc2ccccc2)cc1	10.6[16.7 µM]	6.0
COc1ccc(S(=O)(=O)N(C)C[C@@H]2Oc3c(NC(=O)NC(C)C)cccc3C(=O)N([C@@H](C)CO)C[C@H]2C)cc1	-11.6[16.7 µM]	-5.0
C[C@H](CO)N1C[C@H](C)[C@H](CN(C)Cc2ccc3c(c2)OCO3)Oc2cc(-c3cccc(C(=O)N(C)C)c3)ccc2S1(=O)=O	1.6[16.7 µM]	-10.7
CCCNC(=O)N(C)C[C@H]1Oc2ncc(-c3ccncc3)cc2C(=O)N([C@@H](C)CO)C[C@H]1C	5.3[16.7 µM]	-8.4
C[C@@H]1CN([C@@H](C)CO)C(=O)c2cccc(NC(=O)Nc3ccccc3)c2O[C@H]1CN(C)C(=O)Nc1ccc(C(F)(F)F)cc1	40.9[16.7 µM]	1.9
Cc1ccc(S(=O)(=O)N[C@H]2CC[C@@H](CCn3cc(C4CC4)nn3)O[C@H]2CO)cc1	-23.0[16.7 µM]	-4.8
CNC[C@H]1Oc2cc(C#Cc3ccccn3)ccc2S(=O)(=O)N([C@H](C)CO)C[C@@H]1C	-14.2[16.7 µM]	11.4
CCC(=O)Nc1ccc2c(c1)C(=O)N(C)C[C@@H](OC)[C@H](C)CN(C(C)=O)[C@H](C)CO2	-9.0[16.7 µM]	-3.5
O=C(CN1CCOCC1)N[C@H]1CC[C@@H](CCn2cc(C3CC3)nn2)O[C@@H]1CO	-20.1[16.7 µM]	-1.8
Cc1ccccc1S(=O)(=O)N[C@H]1CC[C@H](CCNS(=O)(=O)c2cccc(F)c2)O[C@H]1CO	-19.7[16.7 µM]	31.3
C[C@H](CO)N1C[C@H](C)[C@H](CN(C)C(=O)CN(C)C)Oc2cc(C#CCC3CCCC3)ccc2S1(=O)=O	14.9[16.7 µM]	107.3*
Cc1ccc(S[C@]2(C(=O)NC(C)C)CC(=O)N(C3CCCCC3)[C@@H]2c2ccc(CO)cc2I)cc1	-20.7[16.7 µM]	0.1
C[C@H](CO)N1C[C@H](C)[C@H](CN(C)C)Oc2cc(-c3cccc(F)c3)ccc2S1(=O)=O	10.2[16.7 µM]	4.7
CC(C)NC(=O)N(C)C[C@H]1Oc2ncc(C#CC3CCCCC3)cc2C(=O)N([C@@H](C)CO)C[C@H]1C	5.5[16.7 µM]	3.0
CCCN(C)C[C@@H]1Oc2cc(C#CCN(C)C)ccc2S(=O)(=O)N([C@H](C)CO)C[C@@H]1C	-23.2[16.7 µM]	-5.4
CN1C(=O)c2cc(NC(=O)Cc3ccccc3)ccc2OC[C@@H]2O[C@H](CC(=O)NCc3ccc(Cl)cc3)CC[C@H]21	13.3[16.7 µM]	11.3
COc1ccc(S(=O)(=O)N(C)C[C@H]2Oc3c(NC(=O)c4ccc(-c5nccs5)cc4)cccc3C(=O)N([C@H](C)CO)C[C@@H]2C)cc1	-13.8[16.7 µM]	6.0
Cc1noc(C)c1NC(=O)N(C)C[C@@H]1Oc2ccc(NS(=O)(=O)c3cn(C)cn3)cc2CC(=O)N([C@@H](C)CO)C[C@H]1C	14.6[16.7 µM]	-9.2
COc1ccc(NC(=O)C[C@H]2CC[C@H]3[C@@H](COc4ccc(NC(=O)C5CC5)cc4C(=O)N3C)O2)cc1	-0.8[16.7 µM]	5.2
CN1C(=O)c2cc(NC(=O)Nc3ccccc3F)ccc2OC[C@H]2O[C@H](CC(=O)O)CC[C@H]21	8.9[16.7 µM]	-3.4
C[C@H](CO)N1C[C@H](C)[C@H](CN(C)C(=O)C2CCC2)Oc2cc(C#C[C@@H](C)O)ccc2S1(=O)=O	6.7[16.7 µM]	13.2
C[C@@H]1CN([C@H](C)CO)C(=O)Cc2cc(NC(=O)Nc3ccccc3)ccc2O[C@@H]1CN(C)C	1.2[16.7 µM]	-7.6
C[C@@H]1CCCCO[C@H](CN(C)S(=O)(=O)c2cn(C)cn2)[C@@H](C)CN([C@@H](C)CO)C(=O)c2cc(NC(=O)CCCN(C)C)ccc2O1	22.7[16.7 µM]	-21.7
C/C=C/c1ccc2c(c1)O[C@H](CN(C)C(=O)C1CCCCC1)[C@H](C)CN([C@H](C)CO)S2(=O)=O	11.5[16.7 µM]	200.9*
COc1cccc(CNC(=O)C[C@H]2C=C[C@H](NS(=O)(=O)c3ccccc3OC)[C@H](CO)O2)c1	-1.6[16.7 µM]	-0.8
C[C@H](CO)N1C[C@H](C)[C@@H](CN(C)C(=O)Nc2ccc3c(c2)OCO3)Oc2ccc(NC(=O)Nc3cccc4ccccc34)cc2CC1=O	2.8[16.7 µM]	-9.4
O=C(N[C@@H]1CC[C@H](CCNC(=O)C2CCC2)O[C@H]1CO)c1ccncc1	-4.7[16.7 µM]	-21.0
C[C@H](CO)N1C[C@H](C)[C@@H](CN(C)C(=O)C2CCCCC2)Oc2cc(-c3ccccc3)ccc2S1(=O)=O	23.3[16.7 µM]	9.5
C[C@@H]1CN([C@H](C)CO)C(=O)c2cc(NC(=O)CCN3CCOCC3)ccc2O[C@H]1CN(C)Cc1ccc2c(c1)OCO2	-13.8[16.7 µM]	-13.8
C[C@H](CO)N1C[C@H](C)[C@@H](CN(C)CC2CC2)Oc2ccc(NS(=O)(=O)c3cn(C)cn3)cc2CC1=O	-6.6[16.7 µM]	-6.9
C[C@@H]1CN([C@H](C)CO)C(=O)c2cccc(NS(=O)(=O)c3ccccc3)c2O[C@H]1CN(C)S(=O)(=O)c1ccccc1	-8.6[16.7 µM]	1.8
COc1ccc(NC(=O)N(C)C[C@@H]2Oc3c(cccc3N(C)C)C(=O)N([C@@H](C)CO)C[C@@H]2C)cc1	-18.7[16.7 µM]	-16.6
O=C(O)C[C@H]1C[C@@H]2c3cc(NC(=O)NC4CCCCC4)ccc3O[C@@H]2[C@@H](CO)O1	-7.6[16.7 µM]	5.5
C[C@H](CO)N1C[C@H](C)[C@@H](CN(C)S(=O)(=O)c2cn(C)cn2)OCCCC[C@H](C)Oc2ccc(NS(=O)(=O)c3ccc(Cl)cc3)cc2C1=O	12.5[16.7 µM]	4.5
C[C@@H]1CN([C@@H](C)CO)C(=O)c2cc(NC(=O)c3ccccc3)ccc2O[C@@H](C)CCCCO[C@@H]1CN(C)C(=O)NC1CCCCC1	-8.8[16.7 µM]	14.7
COc1ccc(NC(=O)Nc2cccc3c2O[C@H](CN(C)S(=O)(=O)c2ccccc2)[C@@H](C)CN([C@@H](C)CO)C3=O)cc1	-17.7[16.7 µM]	1.0
COc1ccc(CN(C)C[C@H]2Oc3ccc(NS(=O)(=O)c4ccccc4)cc3CC(=O)N([C@H](C)CO)C[C@H]2C)cc1	7.1[16.7 µM]	-12.9
C[C@H]1CN([C@@H](C)CO)S(=O)(=O)c2ccc(C3=CCCCC3)cc2O[C@@H]1CN(C)Cc1ccncc1	33.8[16.7 µM]	-5.0
Cc1noc(C)c1S(=O)(=O)Nc1ccc2c(c1)C(=O)N([C@@H](C)CO)C[C@@H](C)[C@H](CN(C)C(=O)Cc1ccccc1)OCCCC[C@@H](C)O2	-21.5[16.7 µM]	8.8
COc1ccc(NC(=O)Nc2ccc3c(c2)CC(=O)N([C@@H](C)CO)C[C@@H](C)[C@@H](CN(C)C(=O)NC(C)C)O3)cc1	-6.6[16.7 µM]	19.5
O=C(C[C@H]1C[C@H]2c3cc(NC(=O)Nc4ccccc4F)ccc3O[C@H]2[C@@H](CO)O1)NC1CCCC1	-0.2[16.7 µM]	11.2
Cc1noc(C)c1NC(=O)N(C)C[C@H]1OCCCC[C@H](C)Oc2ccc(NC(=O)NC(C)C)cc2C(=O)N([C@H](C)CO)C[C@@H]1C	-200.8[16.7 µM]	1.1
CCC(=O)N(C)C[C@@H]1Oc2ncc(-c3ccc(F)cc3)cc2C(=O)N([C@H](C)CO)C[C@@H]1C	15.1[16.7 µM]	-6.1
C[C@H]1CCCCO[C@H](CN(C)Cc2ccccc2)[C@@H](C)CN([C@@H](C)CO)C(=O)c2cc(NS(=O)(=O)c3ccc(F)cc3)ccc2O1	42.7[16.7 µM]	13.2
COc1ccc(S(=O)(=O)N(C)C[C@@H]2Oc3ccc(NS(=O)(=O)c4cccs4)cc3C(=O)N([C@@H](C)CO)C[C@H]2C)cc1	7.4[16.7 µM]	-4.0
Next structures:
SMILES	Env fusion inh	Yeast UUG start
C/C=C/c1ccc2c(c1)O[C@H](CN(C)C(=O)c1ccccc1F)[C@@H](C)CN([C@H](C)CO)S2(=O)=O	3.8[16.7 µM]	-1.5
CNC[C@@H]1Oc2ncc(-c3ccccc3F)cc2C(=O)N([C@@H](C)CO)C[C@@H]1C	-12.5[16.7 µM]	1.5
COc1ccc(NC(=O)N(C)C[C@H]2Oc3ccc(NC(=O)C4CC4)cc3C(=O)N([C@@H](C)CO)C[C@@H]2C)cc1	-0.7[16.7 µM]	-1.9
Cc1ccc(S(=O)(=O)Nc2ccc3c(c2)C(=O)N([C@H](C)CO)C[C@H](C)[C@H](CN(C)Cc2ccc(-c4ccccc4)cc2)O3)cc1	9.9[16.7 µM]	2.6
COc1cccc(C#Cc2ccc3c(c2)O[C@H](CN(C)S(=O)(=O)c2ccccc2F)[C@@H](C)CN([C@H](C)CO)S3(=O)=O)c1	24.6[16.7 µM]	-10.9
Cc1ccccc1S(=O)(=O)N[C@@H]1CC[C@H](CCn2cc(-c3ccc(F)cc3)nn2)O[C@@H]1CO	14.2[16.7 µM]	0.7
Cc1noc(C)c1NC(=O)Nc1ccc2c(c1)CC(=O)N([C@H](C)CO)C[C@H](C)[C@H](CN(C)Cc1ccc(C(F)(F)F)cc1)O2	-25.3[16.7 µM]	-2.2
O=C(C[C@@H]1CC[C@H](NC(=O)Nc2cc(F)ccc2F)[C@@H](CO)O1)Nc1ccccc1	6.1[16.7 µM]	-6.0
CC(C)CC#Cc1cnc2c(c1)C(=O)N([C@@H](C)CO)C[C@@H](C)[C@@H](CN(C)C(=O)Nc1ccccc1F)O2	14.6[16.7 µM]	11.3
C[C@H]1CN([C@@H](C)CO)C(=O)c2cccc(NC(=O)NC3CCCCC3)c2O[C@H]1CN(C)Cc1ccc(C(F)(F)F)cc1	0.3[16.7 µM]	-7.0

High-throughput results as filed in PubChem.

Some of the compounds tested (hit frequency here may not be typical).
